Assay outcomes deposited in PubChem BioAssay by several laboratories.
UUG fidelity = modulators of start codon recognition fidelity in yeast; S. cerevisiae UUG-firefly luciferase reporter, luminescence/redox ratio; activity score, % at 18.7 µM; 0.13% of 350,000 active; AID 602363;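 active = replicate mean at a twofold rise or more, about +100% in these data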;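 also: firefly luciferase made from a UUG start codon reports start codon fidelity; reporter light over untreated wells divided by growth signal over untreated wells; some hits fall short of that in this replicate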
CSC inhib = cancer stem cell inhibition; cancer stem cell-like cells viability, luminescence; inhibition, % at 7.5 µM; 1.1% of 300,000 active; AID 2717;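 active = mean at 75% or more and at least half the replicates too; tested in HMLE shEcad cells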;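 also: 0% = median of negative and 100% = median of positive control wells; the first replicate is given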
eIF4H inh = inhibitors of RNA binding by human eIF4H | Q15056 | inhibition, % at 35 µM | 0.94% of 290,000 active | AID 2012 | eIF4H fluorescence polarization binding assay;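 active = 50% or more with normal probe brightness, or confirmed in later tests; about a fifth of its hits are not listed in these tables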;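 also: calls also rest on retests at 20 µM and on dose response follow-up; 0% = protein and probe with vehicle and 100% = probe without protein; strong numbers were not always called active; many hits fall short of the cut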
PABP polyA inh = blocks human PABP binding to poly(A) RNA | P11940 | fluorescence polarization | inhibition, % at 35 µM | 1% of 290,000 active | AID 2014;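 active = 50% or more with normal probe brightness, or confirmed in later tests; about a fifth of its hits are not listed in these tables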;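 also: calls also rest on retests at 20 µM and on dose response follow-up; controls were probe without protein and protein plus probe with vehicle; some compounds called inactive have numbers as strong as hits; many hits fall short of the cut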
MT1-MMP act inh = blocks activation of human MT1-MMP; P50281; HT1080 RFP-PRO-GFP cells, GFP/RFP ratio fluorescence, overnight; percent of plate control window, DMSO zero; GFP/RFP ratio change, % at 20 µM; 0.061% of 360,000 active; AID 651647;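 active = GFP/RFP ratio change of at least 30% with cell ATP level not reduced by more than half and red fluorescence within 50% of control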; also: strong numbers were not always called active
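Assay system: HT1080 RFP-PRO-GFP cells | Dosing: 20 µM single dose, 1% DMSO | Incubation: Cells overnight before dosing, compound overnight, 37 °C, 5% CO2 | Evaluation: GFP/RFP fluorescence ratio | Control set: DMSO-only wells and HT1080 RFP-L50D-GFP cell wells as references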
Rce1 inhib = inhibitors of yeast Ras-converting enzyme; Q03530; yeast membranes, quenched prenylated peptide cleavage fluorescence; calls only; 0.27% of 290,000 active;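 active = fall in fluorescence gain of 50% or more versus controls, with final raw signal at or below 3038400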;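 also: plate controls were neutral control wells for no effect and wells lacking membranes for full effect; tested at 10 µM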
Target sequence (Q03530 whole entry, looked up): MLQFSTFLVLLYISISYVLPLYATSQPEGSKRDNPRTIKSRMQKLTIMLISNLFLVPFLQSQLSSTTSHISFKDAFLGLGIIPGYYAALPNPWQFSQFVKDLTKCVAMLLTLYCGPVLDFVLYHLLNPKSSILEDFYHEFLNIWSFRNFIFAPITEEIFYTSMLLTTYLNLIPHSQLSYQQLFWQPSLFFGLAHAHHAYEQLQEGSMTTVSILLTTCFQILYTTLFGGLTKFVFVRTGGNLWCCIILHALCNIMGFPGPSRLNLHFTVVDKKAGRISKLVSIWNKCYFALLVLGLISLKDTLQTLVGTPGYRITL
HIV Env fusion = HIV envelope-mediated fusion inhibition; HeLa-JRFL Env/CEM21 cell fusion, luciferase; inhibition, % at 12.3 µM; 1.1% of 360,000 active; AID 651610;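 active = mean replicate inhibition score of at least 50 and every replicate individually at or above 50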;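 also: 0% = plate neutral controls and 100% = maraviroc near 300 nM; one replicate is shown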
MT1-MMP act inh RFP = also measured in MT1-MMP act inh; calls as there; RFP signal change, %; measured here: RFP expression control read;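 0 = vehicle wells; hits needed this value within 50% of zero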
* marks the source's active call; other numbers are inactive results; i = inactive; nt = no result given.

SMILES	UUG fidelity	CSC inhib	eIF4H inh	PABP polyA inh	MT1-MMP act inh	MT1-MMP act inh RFP	Rce1 inhib	HIV Env fusion
CCCCCc1nc2c(=O)[nH]c3ccccc3c2o1	-17	0	-10	-13	-1	-1	i	-90
Cc1ccc(C(=O)NC(=C(Cl)Cl)S(=O)(=O)c2ccccc2)cc1	nt	98*	9	-15	0	3	i	-55
CN(CC(=O)Nc1ccc(OC(F)(F)F)cc1)C(=O)Cn1c(=O)cnc2ccccc21	-7	-18	nt	nt	6	4	nt	8
COC(=O)CC1C(=O)NCCN1C(=O)CSc1nc2cc(Cl)ccc2o1 (stereo unspecified)	-14	nt	-3	0	1	-1	i	2
O=C(NC1CCCC1)C(c1ccncc1)N(C(=O)c1ccco1)c1ccc(F)c(Cl)c1 (stereo unspecified)	-21	-5	-4	9	-1	1	i	23
Cc1cc(C)cc(NC(=S)NCc2ccc3c(c2)OCO3)c1	-38	-9	nt	nt	0	1	i	12
Cc1ccccc1NC(=O)Cc1nc(COC(=O)c2nc(Cl)ccc2Cl)cs1	-10	-2	nt	nt	-2	2	nt	3
CNC(=O)/C(C#N)=C/c1c(N(Cc2ccccc2)Cc2ccccc2)nc2ccccn2c1=O	nt	16	-5	9	-2	-11	i	18
C#CCN1C(=O)C2C(C(=O)NC)C3C=CC2(O3)C1C(=O)NCc1ccc(OC)cc1 (stereo unspecified)	-1	-10	-7	0	-4	0	i	10
O=C(O)c1ccc(-c2nc3ccccc3s2)o1	-45	0	7	8	2	10	i	16
O=C(COc1ccccc1)Nc1ccc(NC(=O)c2ccco2)cc1	nt	-4	-8	11	0	0	i	-8
CCSC1=C(C#N)C(c2ccccc2Cl)C(C(=O)c2cccs2)C(O)(C(F)(F)F)N1 (stereo unspecified)	-8	42	-15	4	6	5	i	8
C[C@H](NC(=O)c1ccc(Cl)cc1)C(=O)NNC(=O)c1cccs1	-1	-11	nt	nt	-1	-4	nt	-9
O=C(c1ccc(Cl)c(S(=O)(=O)N2CCc3ccccc32)c1)N1CCN(c2ccccc2O)CC1	-5	19	nt	nt	3	-13	nt	15
Cc1ccc(Oc2cc(C#N)c(C#N)cc2-n2nnc3ccccc32)cc1C	-23	2	-12	1	-1	2	i	nt
Cc1cc(-c2ccc(C)c(S(=O)(=O)NCCCN3CCN(c4ccccc4)CC3)c2)on1	-14	-10	0	9	0	-18	i	12
Cc1ccc(/C=C/C(=O)CCC(=O)O)cc1	-14	-10	-13	-8	-1	0	i	-26
O=C(c1ccc(Cl)c([N+](=O)[O-])c1)N1CCN(c2ccccn2)CC1	nt	-9	8	-2	4	8	i	6
Cc1onc(-c2c(F)cccc2Cl)c1C(=O)N[C@@H]1C(=O)N2C(C(=O)O)C(C)(C)S[C@H]12 (stereo partly specified)	-13	-4	nt	nt	-2	6	nt	-9
COc1cccc(C(=O)Nc2c3c(nn2-c2cccc(C)c2C)CS(=O)(=O)C3)c1OC	11	5	-6	-4	1	-2	i	6
CC(=O)Nc1ccc(NCC(O)COc2ccccc2)cc1 (stereo unspecified)	-8	-2	-8	8	2	5	i	nt
CCOC(=O)N1CCC(N2C(=O)c3ccc(C(=O)Nc4cccc(OC)c4)cc3C2=O)CC1	-9	-12	nt	nt	-7	-11	i	-2
COc1cc(C2C(C#N)=C(N)N(c3ccc(F)cc3)C3=C2S(=O)(=O)CC3)ccc1O (stereo unspecified)	nt	nt	9	-19	17	45	i	13
CN(C)c1ccc(-n2cccc2)cc1	nt	0	-1	3	2	1	i	-15
CC(C(=O)Nc1ccc(C(=O)O)cc1)N1C(=O)c2ccccc2C1=O (stereo unspecified)	-7	-2	-1	-6	1	2	i	-33
O=[N+]([O-])c1cccc(S(=O)(=O)NCCc2cn3ccccc3n2)c1	-9	-8	-2	3	8	3	i	0
O=c1c(Cl)c(NC2CC2)cnn1-c1ccccc1	nt	-5	15	-11	-2	5	i	-2
O=C(/C=C/c1cn(-c2ccccc2)nc1-c1cccnc1)N1CCCC1	nt	nt	-2	-7	1	-1	i	7
COc1cc(C2Nc3ccccc3C(=O)N2NS(C)(=O)=O)c([N+](=O)[O-])cc1OC (stereo unspecified)	-16	-9	-10	-7	1	3	i	0
Cc1ccc(Sc2ncnc(N)c2[N+](=O)[O-])cc1	nt	-4	-7	6	-11	-13	i	7
COc1ccc(OC)c(CN2CCCC(C(=O)N3CCCCC3)C2)c1 (stereo unspecified)	-1	-7	-2	-4	6	0	i	2
COC(=O)CN1C(=O)C(O)(CC(=O)c2ccc(C)o2)c2ccccc21 (stereo unspecified)	nt	-13	0	4	-1	6	i	nt
CN(C(=O)C=Cc1ccccc1)c1ccccc1	-12	nt	nt	nt	2	-4	nt	6
O=C(NNC(=S)NCc1ccccc1)c1cccnc1	-31	7	-14	-11	0	0	i	13
CCOC(=O)c1ccc(S(=O)(=O)NNC(=O)Cc2csc(C)n2)cc1	-27	-28	nt	nt	1	0	nt	nt
COCCC(=O)N1CCC(Oc2ccc(C(=O)NCCn3cccn3)cc2)CC1	-11	29	-11	2	-2	3	i	-7
O=C(CCn1c(=S)[nH]c2ccccc2c1=O)NCCCN1CCOCC1	-16	3	-12	5	-9	5	i	-6
CC1CCN(c2ccc(-c3cccs3)nn2)CC1	-85	32	8	1	-1	-1	i	16
CN(c1ccccc1)S(=O)(=O)c1cccc(C(=O)OCC(=O)NCc2ccccc2)c1	-23	-15	nt	nt	-1	2	nt	10
O=C1OC(O)c2cccc3cccc1c23 (stereo unspecified)	-3	nt	nt	nt	-3	1	nt	8
CC1(C)CC(=O)c2c(oc3ccc(NS(=O)(=O)c4ccc(C(=O)O)cc4)cc23)C1	nt	-2	0	-3	-3	-2	nt	13
O=C(O)c1cccc(N2C(=O)C3CC=CCC3C2=O)c1 (stereo unspecified)	-29	18	-1	-2	5	6	i	-2
CCOc1ccccc1NC(=O)c1cc2ccccc2o1	1	nt	nt	nt	-2	5	nt	-33
C/C=C/c1ccc(OCC(=O)N2CCc3cc(OC)c(OC)cc3C2)c(OC)c1	27	-4	0	6	-1	-4	i	7
CC(=O)Nc1ccc(S(=O)(=O)N2CCN(c3cc(C(F)(F)F)ccn3)CC2)cc1	nt	5	11	0	7	-8	i	9
CCOc1c2ccc(C(=O)NCc3ccccc3OC)cc2nn1CC	-12	-7	-8	0	2	4	i	-4
CC1Cc2ccccc2N1C(=O)CN1CCN(S(=O)(=O)c2ccc3c(c2)OCCCO3)CC1 (stereo unspecified)	-6	nt	nt	nt	-2	-4	nt	-18
COc1ccc(OCCCC(=O)NCCc2ccc(OC)c(OC)c2)cc1	nt	-7	0	8	0	-1	i	4
CCCN(CC(=O)Nc1ccccc1C)C(=O)Cc1coc2cc(C)ccc12	-26	-14	3	21	0	0	i	nt
N=C1SC(CC(=O)Nc2ccccc2[N+](=O)[O-])C(=O)N1c1ccccc1 (stereo unspecified)	-9	4	3	2	7	-4	i	-4
Oc1ccccc1-c1nc(N2CCCC2)c2ccccc2n1	-19	-13	8	-10	-2	-2	i	-36
CCCS(=O)(=O)N1CCC(C(=O)NCCN2CCCC2)CC1	nt	5	-3	4	5	4	i	nt
Cc1ccc(Cl)cc1N1CCN(C(=O)C(=O)N2CCCCC2)CC1	9	-7	-10	-5	0	0	i	4
COc1ccc(CNC(=O)C(OC(=O)c2ccco2)c2ccccc2)cc1 (stereo unspecified)	-2	10	-2	4	3	10	i	-5
CCOc1ccc(CNC(=S)N/N=C\c2ccc([N+](=O)[O-])cc2)cc1	nt	-4	0	-4	0	-5	i	nt
CCCCCCSc1ccc([C@@H]2[C@H]3C(=O)N(CC)C(=O)[C@H]3[C@]3(C(=O)OC)CCCN23)cc1	-14	-10	nt	nt	6	-2	nt	-6
CCC(CC)c1nnc(NC(=O)CC(C)c2ccccc2)s1 (stereo unspecified)	-5	0	-8	8	-3	-12	nt	6
Cc1cc(C(=O)CSc2nnc(-c3cccnc3)n2-c2ccccc2F)c(C)n1C	-5	-11	nt	nt	-2	6	i	-2
COc1ccc(C(O)c2nc(-c3cccc(F)c3)cs2)cc1 (stereo unspecified)	1	nt	nt	nt	5	-3	nt	-11
O=C(Nc1nc2nccc(-c3ccccc3)n2n1)C(Cl)(Cl)Cl	nt	2	2	-6	0	0	i	15

15 compounds from above, sorted by molecular weight, rising:
SMILES	UUG fidelity	CSC inhib	eIF4H inh	PABP polyA inh	MT1-MMP act inh	MT1-MMP act inh RFP	Rce1 inhib	HIV Env fusion
CCOc1ccccc1NC(=O)c1cc2ccccc2o1	1	nt	nt	nt	-2	5	nt	-33
Oc1ccccc1-c1nc(N2CCCC2)c2ccccc2n1	-19	-13	8	-10	-2	-2	i	-36
CCC(CC)c1nnc(NC(=O)CC(C)c2ccccc2)s1 (stereo unspecified)	-5	0	-8	8	-3	-12	nt	6
CCCS(=O)(=O)N1CCC(C(=O)NCCN2CCCC2)CC1	nt	5	-3	4	5	4	i	nt
Cc1ccc(Cl)cc1N1CCN(C(=O)C(=O)N2CCCCC2)CC1	9	-7	-10	-5	0	0	i	4
CCOc1c2ccc(C(=O)NCc3ccccc3OC)cc2nn1CC	-12	-7	-8	0	2	4	i	-4
O=C(Nc1nc2nccc(-c3ccccc3)n2n1)C(Cl)(Cl)Cl	nt	2	2	-6	0	0	i	15
COc1ccc(CNC(=O)C(OC(=O)c2ccco2)c2ccccc2)cc1 (stereo unspecified)	-2	10	-2	4	3	10	i	-5
N=C1SC(CC(=O)Nc2ccccc2[N+](=O)[O-])C(=O)N1c1ccccc1 (stereo unspecified)	-9	4	3	2	7	-4	i	-4
COc1ccc(OCCCC(=O)NCCc2ccc(OC)c(OC)c2)cc1	nt	-7	0	8	0	-1	i	4
CCCN(CC(=O)Nc1ccccc1C)C(=O)Cc1coc2cc(C)ccc12	-26	-14	3	21	0	0	i	nt
C/C=C/c1ccc(OCC(=O)N2CCc3cc(OC)c(OC)cc3C2)c(OC)c1	27	-4	0	6	-1	-4	i	7
CC(=O)Nc1ccc(S(=O)(=O)N2CCN(c3cc(C(F)(F)F)ccn3)CC2)cc1	nt	5	11	0	7	-8	i	9
CCCCCCSc1ccc([C@@H]2[C@H]3C(=O)N(CC)C(=O)[C@H]3[C@]3(C(=O)OC)CCCN23)cc1	-14	-10	nt	nt	6	-2	nt	-6
CC1Cc2ccccc2N1C(=O)CN1CCN(S(=O)(=O)c2ccc3c(c2)OCCCO3)CC1 (stereo unspecified)	-6	nt	nt	nt	-2	-4	nt	-18

(continued)
SMILES	UUG fidelity	CSC inhib	eIF4H inh	PABP polyA inh	MT1-MMP act inh	MT1-MMP act inh RFP	Rce1 inhib	HIV Env fusion
Cc1ccsc1C(=O)N1CCN(C(=O)c2ccco2)CC1	-8	-6	nt	nt	-1	0	nt	nt
Cc1cc(=O)oc2cc(OCC(=O)Nc3ccc(CN4CCOCC4)cc3)c(Cl)cc12	-13	-4	-4	-10	1	3	i	5
c1ccc(-c2ccncn2)cc1	-28	nt	nt	nt	-3	2	nt	-2
Cc1ccc(CNS(=O)(=O)c2cccc3nsnc23)cc1	nt	-12	1	-11	1	-2	i	11
O=C(CCC(=O)c1cccs1)OCc1nnc(-c2ccccc2)o1	-4	-1	4	1	1	-1	i	7
